HPGD block: blocks human HPGD enzyme activity | P15428 | purified HPGD, NADH fluorescence kinetic, PGE2 substrate | Potency, µM, for the others: at the highest dose activity change, negative = inhibition, most hits filed as inhibitors | 4.3% of 150,000 active | AID 894; active = well fitted inhibition curve with a large enough effect (not every such curve was filed as active); inconclusive = small, poorly fitted or top-dose-only effect, or another doubt; inactive = no such curve, though single readings can be large or run the other way;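 also: top concentration of the series not given in the record; plate controls included wells without enzyme; inactives centre near -10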
Target sequence (P15428 whole entry, looked up): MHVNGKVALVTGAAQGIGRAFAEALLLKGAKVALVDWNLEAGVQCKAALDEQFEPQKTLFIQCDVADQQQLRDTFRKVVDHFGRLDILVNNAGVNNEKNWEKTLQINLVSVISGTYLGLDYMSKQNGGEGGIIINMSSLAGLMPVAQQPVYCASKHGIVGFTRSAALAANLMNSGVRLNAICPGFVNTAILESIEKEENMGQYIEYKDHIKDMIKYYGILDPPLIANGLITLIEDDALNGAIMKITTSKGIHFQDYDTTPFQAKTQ
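NADH formation kinetics: reaction with 30 uM PGE2 and 1 mM NAD+ (final), 20 nM enzyme, Tris-HCl pH 8 with Tween 20, after 15 min compound preincubation at room temperature. Fluorescence change, last versus first of five reads.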
Active calls of the source: *; ? = inconclusive; & = joins results of further samples. % is scaled to controls: 0 for no effect and ±100 for the full control effect; potency is read from the fitted curve at half-maximal effect. Some of the compounds tested, so the mix of outcomes need not match the whole.

nr	canonical_smiles	HPGD block
1	COc1ccc(CCNCCC(=O)Nc2c(C)cc(C)cc2C)cc1OC	-5.3%
2	CCOC(=O)c1ccccc1NC(=O)CC1Nc2ccccc2NC1=O (stereo not given)	?
3	CCN(CC)C(=O)CSc1nc2ccc(NC(=O)CSc3nccn3C)cc2s1	31.6µM*
4	O=c1c2ccccc2c(C=Nc2ccc(S(=O)(=O)N3CCCCC3)cc2)c(O)n1-c1ccc(Cl)cn1	-14.7%
5	CC(=O)c1ccc(N2CCN(C(=O)C3CCC3)CC2)cc1	-22.0%
6	Cc1ccc(N2C(=O)C3C4C=CC(C4)C3C2=O)cc1C (stereo not given)	-10.3%
7	CN(C)CCCN=c1c2ccccc2n(C)c2[nH]c(=O)n(C)c(=O)c12	-1.1%
8	Cc1cc(=O)c2c(O)c3c(O)cc(O)c4c5c(O)cc(O)c6c(O)c7c(=O)cc(C)c8c1c2c(c34)c(c65)c78	8.91µM*
9	COc1cc(C(=O)NCc2nnc(SCC(=O)Nc3cc(C)cc(C)c3)o2)cc(OC)c1OC	-13.5%
10	COc1ccccc1C1/C(=C(\O)c2ccc3c(c2)OCCO3)C(=O)C(=O)N1CCCN(C)C (stereo not given)	-6.6%
11	C/C(CCC(=O)OC[C@H]1O[C@H](C#Cc2ccccc2)C=C[C@@H]1Oc1ccc(C)cc1)=N\O[C@@H](C)CN1CCCCc2nc(C)c(C)cc21	-15.2%
12	Cc1cc(O)cc(O)c1C(=O)Cc1cscn1	-19.2%
13	CC(=O)Nc1ccc(N)cc1	-1.0%
14	CCN1C(=O)C2C(c3cccc(F)c3)NC(CC)(C(=O)OC)C2C1=O (stereo not given)	-5.7%
15	COc1cccc(NC(=O)N(CCCN2CCOCC2)C(C)c2cc3ccccc3o2)c1 (stereo not given)	-9.2%
16	Cc1ncsc1CCOC(=O)c1cccnc1	-3.8%
17	CCOC(=O)Cn1nc(/C=C/c2ccccc2)ccc1=O	?
18	CCC1(CC)C(=O)N=C2c3ccccc3C(=O)N21	-13.2%
19	CCN(CC)C(=O)Oc1ccc2c(=O)c(-c3ccccc3)coc2c1	-16.8%
20	Oc1ccc2n[nH]nc2c1	?
21	N#CC1=C(N)N=C(SCc2ccccc2)C(C(N)=O)C12CCCCC2 (stereo not given)	-17.6%
22	CCC(=O)NC(=S)Nc1ccccc1F	-16.1%
23	Cc1ccc(C)c(N2CCN(C(=O)C3CCCN(S(=O)(=O)c4c(C)[nH]c(=O)[nH]c4=O)C3)CC2)c1 (stereo not given)	-3.8%
24	Cc1cc(Br)cc2c1NC(=O)C2(c1c(C)n(C)n(-c2ccccc2)c1=O)c1c(C)n(C)n(-c2ccccc2)c1=O	-2.5%
25	CCC(C)c1ccc(NC(=O)COc2c(F)c(F)c(C(F)(F)F)c(F)c2F)cc1 (stereo not given)	0.9%
26	CCN(CC)CCOC(=O)/C=C/c1ccccc1OC	?
27	c1ccc(CSc2nnc(-c3cccs3)n2Cc2ccco2)cc1	-5.3%
28	CCCc1cc(C(=O)NNC(=S)NCC)c2ccccc2n1	?
29	CC(C)(C)NC(=O)NC(=O)COC(=O)Cn1c(C(F)(F)F)nc2ccccc21	-8.3%
30	CCCCOc1ccc(C(=O)NCc2ccco2)cc1	15.8µM*
31	O=C(Cc1cccc2ccccc12)N/N=C1\CCCc2ccccc21	-4.9%
32	c1ccc(CNc2ccc3c(c2)ncn3C2CCCCC2)nc1	-12.1%
33	CCCn1c(SCC(=O)Nc2nonc2C)nnc1-c1ccoc1C	-4.3%
34	COC(=O)C1=NN(c2ccc(Cl)cc2)C2C(=O)N(c3ccccc3OC)C(=O)C12 (stereo not given)	?
35	COC(=O)CN1C(=S)N(c2ccc(OC)cc2)C(=O)/C1=C/c1cccs1	-5.4%
36	O=C(NC1CCCC1)C(c1ccc(F)cc1)N(Cc1ccc(F)cc1)C(=O)CCl (stereo not given)	-9.8%
37	CC1(C)S/C(=N/N=C/c2ccco2)NC1=O	-6.9%
38	O=C1NC(c2cccs2)C(C(=O)c2ccccc2)C(O)(C(F)(F)F)N1 (stereo not given)	-6.5%
39	COCCNC(=O)c1c[nH]c2cc(OC)c(OC)cc2c1=O	-9.5%
40	Cc1ccc(/C=C2/SC(=O)N(CC(=O)N3CCOCC3)C2=O)s1	-1.7%
41	COc1ccc(-n2nc(C(=O)NCC(=O)NCc3ccc(F)cc3)c3ccccc3c2=O)c(OC)c1	-12.8%
42	O=C(Nc1ccc2c(c1)OCO2)c1cncc(Br)c1	-11.5%
43	CCOC(=O)C(C)c1n[nH]c(=O)c2ccccc12 (stereo not given)	0.4%
44	CC1CC1C(=O)OCC(=O)NCc1ccc(Cl)cc1 (stereo not given)	-9.2%
45	COc1ccc(C(=O)NCC(=O)OCC(=O)Nc2cc(OC)ccc2OC)cc1	-9.4%
46	CCOc1ccc(NS(=O)(=O)c2ccc(NC(=S)NC(=O)C(C)C)cc2)cc1	-9.7%
47	COC(=O)C(O)(CC(=O)c1ccc(OC)cc1)C(F)(F)F (stereo not given)	-8.5%
48	CCn1c(CNc2ccc(C)cc2)nnc1SCC(=O)NCc1ccccc1	-9.8%
49	CCC(=O)Nc1nc(OC)cc(OC)n1	-1.1%
50	CC1CCN(S(=O)(=O)c2ccc(NC(=O)Cn3nnc(-c4ccccc4F)n3)cc2)CC1	-24.9%
51	CCN(CC)CCNc1ccnc2cc(Cl)ccc12	-24.9%
52	O=C(Nc1nnc(C2CC2)s1)c1cc([N+](=O)[O-])ccc1N1CCCCC1	-8.9%
53	CC(C)(C)c1ccc(Oc2ccc(N)cc2)cc1	28.2µM*
54	O=C(CN1C(=O)NC2(CCCc3ccccc32)C1=O)N1CCc2ccccc2C1 (stereo not given)	-11.4%
55	O=C(Nc1ccccc1)NC1(C(=O)NCCCN2CCOCC2)CCCCC1	-1.5%
56	O=C1CC(Nc2ccc(N3CCOCC3)cc2)C(=O)N1c1ccccc1 (stereo not given)	-8.9%
57	CCN(CC)S(=O)(=O)c1ccc(-n2cnnn2)c(C)c1	-5.1%
58	CC1Cc2ccccc2N1C(=O)CSc1ncccc1C(=O)O (stereo not given)	-11.1%
59	C[C@H]1CC[C@@H]2N(C1)C[C@H]1[C@@H]3C[C@H]4[C@@H](C/C(=N\O)[C@H]5C[C@@H](O)CC[C@@]54C)[C@@H]3CC[C@H]1[C@]2(C)O	-5.6%
60	O=C(O)c1ccccc1C(=O)N(Cc1ccccc1)Cc1ccccc1	-7.2%

More results follow.
nr	canonical_smiles	HPGD block
61	Cc1nc2ccccn2c1C(=O)Nc1ccc2c(c1)OCCO2	-7.9%
62	CCOC(=O)c1c(C(F)(F)C(F)(F)C(F)(F)C(F)(F)F)n[nH]c1C	-24.7%
63	CC(C)OCCCNC(=O)c1cccc(NC(=O)c2ccccc2)c1	-17.7%
64	O=C(O)CCCCCN1C(=O)C(=O)/C(=C(/O)c2ccccc2)C1c1ccccc1 (stereo not given)	-5.7%
65	O=c1cc(-c2cccc(F)c2)[nH]c2cc(Cl)ccc12	-7.3%
66	CCOC(=O)C1CCN(C(c2cc3c(C)ccc(C)c3[nH]c2=O)c2nnnn2C2CCCCC2)CC1 (stereo not given)	-26.2%
67	Cc1ccc(N2CC(C(=O)Nc3cc(C)ccc3F)CC2=O)cc1 (stereo not given)	-1.2%
68	CC1=C(C(=O)Nc2ccccc2)C(c2ccncc2)C(C#N)=C(SCC(=O)NC(C)C)N1 (stereo not given)	-17.6%
69	O=C(O)C1C2C=CC(C3CC23)C1C(=O)NCCc1ccccc1 (stereo not given)	-9.0%
70	O=C(Nc1ccc2c(c1)OCO2)c1c(F)cccc1F	-5.2%
71	O=C(CCCN1C(=O)CCC1=O)Nc1ccccc1F	-3.9%
72	CCc1cc(C(=O)Nc2ccccc2)cs1	-17.9%
73	COc1ccc(-c2nnc3sc(COc4ccc(C)cc4)nn23)cc1	-16.7%
74	O=C(Nc1ccc(S(=O)(=O)N2CCC(C(=O)NC3CCCCC3)CC2)cc1)c1ccco1	?
75	COc1ccc(-n2c3c(cc(C(=O)N4CCC(C)CC4)c2=O)C(=O)CC(C)(C)C3)cc1	-27.9%
76	COc1ccc(NC(=S)Nc2cccc(S(=O)(=O)N3CCCCC3)c2)cc1	-16.1%
77	N#CC1=C(N)Oc2n[nH]c(-c3cccs3)c2C1C1C=CCCC1 (stereo not given)	-5.3%
78	COc1ccc(CCNC(=O)C2CCN(S(=O)(=O)c3cnc[nH]3)CC2)cc1OC	1.8%
79	COC(=O)c1ccc(OCC(O)CN2CCC(C)CC2)cc1 (stereo not given)	-6.8%
80	O=C1/C(=C/c2ccccc2)[C@@H](NC2CCCCC2)c2ccccc21	-20.5%
81	CCCOc1ccc(S(=O)(=O)NCc2ccc(OC)cc2)cc1	-12.6%
82	CCC(Oc1cc(Cl)ccc1Cl)C(=O)NN1C(=O)C2C3CCC(C3=C(C)C)C2C1=O (stereo not given)	-10.8%
83	CC(C)C1Cc2c(sc(NC(=S)NC(=O)c3ccccc3)c2C#N)CO1 (stereo not given)	-24.8%
84	CC(C)(C)OC(=O)N1CCC[C@H]1c1nnc(SCc2c(F)cccc2Cl)o1	-7.9%
85	Cc1cc(NC(=O)c2ccccc2)sc1C	-18.6%
86	CCN(CC)c1ccc(-n2c(O)c(C=C3N=c4ccccc4=N3)sc2=S)cc1	-6.6%
87	CC(=O)Oc1ccccc1C(=O)O	-17.7%&-7.3%
88	CCCCCCOC(=O)Sc1nc2ccccc2o1	-23.6%
89	N[C@@H](Cn1ccc(=O)n(Cc2ccccc2C(=O)O)c1=O)C(=O)O	-14.4%
90	C=CCn1c(O)c(N=Nc2nc3ccccc3c(=O)n2-c2ccccc2)c2ccccc21	-6.9%
91	CCCNC(=O)CN(c1ccc(F)c(Cl)c1)S(C)(=O)=O	-0.7%
92	COc1cc(/C=C2/C(=O)NN(c3cccc(C)c3)C2=O)ccc1OC(=O)c1ccco1	2µM*
93	Cc1ccc(Cl)cc1NC(=O)COC(=O)c1ccc(N2CCCC2)c([N+](=O)[O-])c1	-1.0%
94	COc1ccc(CCNC(=O)COC(=O)C23CC4CC(CC(C4)C2)C3)cc1	-3.2%
95	COC(=O)[C@@]1(Cc2ccccc2)[C@H]2c3cc(C(=O)N4CCCC4)n(Cc4ccc(C)o4)c3C[C@H]2CN1C(=O)c1ccccc1	-24.0%
96	CCOC(=O)CC1C(=O)NCCN1C(=O)c1cc2c(=O)n3ccccc3nc2s1 (stereo not given)	?
97	CCOC(=O)N=Nc1c(O)n(C)c2ccccc12	-10.4%
98	O=C(C1=C(O)C(=O)N(c2ncccn2)C1c1cccc(Cl)c1)c1ccco1 (stereo not given)	-13.1%
99	O=C(CCC(=O)N1CCN(S(=O)(=O)c2ccccc2)CC1)NC1CCCc2ccccc21 (stereo not given)	-11.5%
100	O=C(NCc1nnc2n1CCCCC2)c1ccc(Cl)cc1Cl	?
101	Cc1c2cn[nH]c(=O)c2c(C)n1Cc1ccc(F)cc1	-25.2%
102	Cn1c(=O)n(C)c2cc(S(=O)(=O)NCCOCCO)ccc21	4.3%
103	O=C(CCn1c(SCC(=O)NCc2ccco2)nc2ccccc2c1=O)NCCc1ccccc1	-8.4%
104	COc1ccc(S(=O)(=O)Cc2ccc(C(=O)N3CCN(Cc4ccccc4)CC3)o2)cc1	-16.4%
105	CCCCC[C@H](O)/C=C/[C@H]1C(=O)C=C[C@@H]1C/C=C\CCCC(=O)O	-10.2%
106	Cc1cc(C)n(-c2ccc(C(=O)OCC(=O)Nc3ccccc3[N+](=O)[O-])cc2)n1	-1.2%
107	S=C(Nc1ccccc1)Nc1ccc(Cl)cc1Cl	-27.2%
108	O=C(O)CCSc1nnc(-c2ccccc2)n1-c1ccccc1	-8.7%

Next section; it opens with the 4 that closed the last part.
nr	canonical_smiles	HPGD block
105	CCCCC[C@H](O)/C=C/[C@H]1C(=O)C=C[C@@H]1C/C=C\CCCC(=O)O	-10.2%
106	Cc1cc(C)n(-c2ccc(C(=O)OCC(=O)Nc3ccccc3[N+](=O)[O-])cc2)n1	-1.2%
107	S=C(Nc1ccccc1)Nc1ccc(Cl)cc1Cl	-27.2%
108	O=C(O)CCSc1nnc(-c2ccccc2)n1-c1ccccc1	-8.7%
109	COC(=O)/C=C(\C)NC(=O)c1cccs1	-8.2%
110	CCOC(=O)c1c(NC(=O)CN2CCN(C(=O)c3ccco3)CC2)sc2c1CCCC2	-18.7%
111	Cc1oc2nc(SCC(=O)NCc3cccnc3)nc(N)c2c1C	-2.1%
112	O=[N+]([O-])c1c(NCCCO)cc(Sc2nc3ccccc3s2)c2nonc12	2.82µM*
113	Cc1cc(-c2n[nH]c(=S)n2/N=C/c2ccc(Br)s2)n[nH]1	12.6µM*
114	O=c1c(-c2ccc(O)cc2)coc2c(C3OC(CO)C(O)C(O)C3O)c(O)ccc12 (stereo not given)	?
115	CSc1nc(NC(C)(C)C)nc(Oc2ccc(=O)[nH]n2)n1	-14.9%
116	COc1ccccc1NC(=O)CSc1nc(O)cc(=O)n1-c1ccccc1OC	-15.6%
117	COc1ccc2ccccc2c1/C=N/O	7.08µM*
118	CCC(=O)c1ccccc1OCCCn1cncn1	-12.3%
119	CCOc1c(C)cc(-c2ncccc2O)cc1C	?
120	COCCCn1c(SCC(=O)N2CCc3ccccc32)nnc1-c1ccco1	-5.8%
121	CN(C)C(=O)NC1CCCCCCCCCCC1	6.0%
122	CCCCN1CCCC[C@H]1C(=O)Nc1c(C)cccc1C	-8.6%&5.9%
123	COC(=O)c1c(NC(=O)CSc2nc3ccccc3c(=O)n2Cc2ccco2)sc(C)c1C	-5.0%
124	Cc1nc2c(o1)CCc1ccccc1C2O (stereo not given)	-11.0%

Screens deposited in PubChem by National Center for Advancing Translational Sciences (NCATS).
